Bioassay records: PubChem BioAssay, several laboratories
Hsc70 ATP site: Hsc70 inhibitors, probe displacement, primary screen, biochemical, fluorescence polarization (AID 568). 83,000 tested, under 10 active. Hsc70 fluorescence polarization, probe displacement; higher % means a stronger effect; strong numbers were not always called active. one-dose displacement, % at 20 µM; IC50 in µM for titrated hits;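 active = displacement above 50% without optical interference and an IC50 on retest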;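 note: ATPase domain with a fluorescein-tagged ATP probe; 0% = vehicle and 100% = excess ADP; read after one hour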
MT1-MMP promoter: inhibitors of MT1-MMP promoter transcription, cell-based, luciferase reporter, luminescence (AID 618) | MT1-MMP promoter luciferase reporter cells, luminescence | calls from a first round at 10 µM; hits with a dose series show EC50 in µM | 87,000 compounds, 0.62% hits;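 active = over half of the reporter light lost at 10 µM or EC50 under 50 µM; inactive = the rest and hits that failed the dose series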;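 note: actives suppress MT1-MMP promoter-driven transcription so potencies describe inhibitors; HT1080 fibrosarcoma cells; overnight exposure; toxic or luciferase-blocking compounds were not removed from the actives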
WNV protease inh: WNV NS2B-NS3 proteinase inhibition; WNV NS2B-NS3 protease, fluorogenic substrate Ex360/Em465; stronger effect = lower value; z-score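 (tested at a level between 10 and 100 µM)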; 65,000 compounds, 0.18% hits;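 active = z-score at -3 or under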;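 note: score is relative to mean and spread of the compound wells of a plate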
Target sequence (P06935 1371-1501 limits assumed): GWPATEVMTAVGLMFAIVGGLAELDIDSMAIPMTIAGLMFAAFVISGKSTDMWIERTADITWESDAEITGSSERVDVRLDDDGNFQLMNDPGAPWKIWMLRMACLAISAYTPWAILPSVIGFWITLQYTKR
Target sequence (P06935 1502-1679 limits assumed): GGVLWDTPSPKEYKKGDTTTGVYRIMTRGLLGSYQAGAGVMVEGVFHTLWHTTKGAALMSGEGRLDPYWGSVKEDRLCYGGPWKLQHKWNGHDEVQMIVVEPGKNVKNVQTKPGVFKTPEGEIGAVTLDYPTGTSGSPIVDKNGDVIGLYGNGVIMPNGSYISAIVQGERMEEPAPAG
Starred values were filed as active, the others as inactive; i = inactive; / = not tested or not shown.

Preview, 2 compounds:
Molecule | Hsc70 ATP site | MT1-MMP promoter | WNV protease inh
COc1cc(CNc2ccc3[nH]c(=O)[nH]c3c2)cc(Br)c1OCC(=O)NC(C)(C)C | -1.4% | i | /
Cc1c(C(=O)O)oc2ccc(S(=O)(=O)NCc3ccc4c(c3)OCO4)cc12 | -2.1% | i | -0.55

Main list, repeating the preview:
Molecule | Hsc70 ATP site | MT1-MMP promoter | WNV protease inh
COc1cc(CNc2ccc3[nH]c(=O)[nH]c3c2)cc(Br)c1OCC(=O)NC(C)(C)C | -1.4% | i | /
Cc1c(C(=O)O)oc2ccc(S(=O)(=O)NCc3ccc4c(c3)OCO4)cc12 | -2.1% | i | -0.55
O=C(CN1C(=O)c2ccccc2C1=O)Nc1ccccc1C(=O)N1CCCC1 | 1.9% | i | 0.05
O=C(c1cccs1)n1nc(-c2ccccc2)nc1NCc1ccco1 | -0.1% | i | -1.2
O=C(CN1CCN(S(=O)(=O)c2ccc(Cl)cc2)CC1)Nc1ccc2c(c1)OCCO2 | -1.2% | i | -0.47
CC(=O)C1=C(O)C(=O)N(CCCCCC(=O)O)C1c1ccc(N(C)C)cc1 (centres undefined) | -2.0% | i | 0.82
Cc1ccc(-c2nnc(SCC(=O)Nc3ccccc3F)o2)cc1 | -2.9% | 0.6µM* | 0.98
Cn1c(=O)c2cc(S(=O)(=O)N3CCC(c4ccccc4)CC3)ccc2n(C)c1=O | -5.2% | i | -0.62
COc1ccc(N(CC(=O)NC2CCCCC2)S(=O)(=O)c2cccnc2)cc1 | -2.9% | i | -0.31
O=C1Nc2cc(Cl)cnc2N2CCCC12 (centres undefined) | 1.1% | i | -1.6
CCOc1ccc(N2CC(C(=O)N3CCc4ccccc4C3)CC2=O)cc1 (centres undefined) | -4.0% | i | /
CC(C)CC(=O)Nc1ccccc1Oc1ccccc1 | -0.7% | i | /
CC(=O)Nc1ccc(N=Cc2nc(-c3ccc(C)cc3)oc2O)cc1 | -24% | i | -0.22
Oc1c(C(c2ccco2)N2CCN(C(c3ccccc3)c3ccccc3)CC2)sc2ncnn12 (centres undefined) | 1.3% | i | -0.18
O=C(CSc1ncnc2c1oc1ccccc12)N1CCCc2ccccc21 | 0.6% | i | -1.2
O=C(NCc1ccco1)c1sc2cc(Cl)ccc2c1Cl | 2.0% | i | /
Cc1ccc(-n2nnnc2SC(C)C(=O)Nc2ccc(Cl)cn2)cc1 (centres undefined) | 4.9% | i | 2.2
O=C(CSc1nnc(-c2cccs2)n1-c1ccccc1)NCC1CCCO1 (centres undefined) | 2.8% | i | 0.08
COc1ccc(-c2nn(C)c3sc(C(=O)NCc4ccco4)cc23)cc1OC | -4.2% | i | -0.9
Cc1ccccc1OCC(=O)Nc1ccc2c(c1)OCO2 | 9.3% | i | 0.33
O=C(NCCN1CCOCC1)c1cc2sccc2n1Cc1ccc(F)cc1 | -1.5% | i | 0.3
COc1ccc(C(c2c(O)ccc3ccccc23)N2CCOCC2)c(OC)c1 (centres undefined) | 6.9% | i | 0.71
O=C(c1ccc(COc2c(F)c(F)c(F)c(F)c2F)o1)N1CCOCC1 | -6.0% | i | -0.43
O=S(=O)(NC1CCCCC1NS(=O)(=O)c1ccc(F)cc1)c1ccc(F)cc1 (centres undefined) | 4.9% | i | -1.1
N#Cc1ccc(COc2ccc(CCO)cc2-n2nc3ccccc3n2)cc1 | 0.5% | i | 0.83
CCOc1cc(CNn2cnnc2)cc(Br)c1OCC(=O)NC1CCCCC1 | -0.4% | i | /
CCOC(=O)C1(C(C)(C)CC)CC(CSc2nc3ccccc3[nH]2)OC1=O (centres undefined) | -0.5% | i | /
O=C(NCc1cccs1)C1CCCN(S(=O)(=O)c2cccs2)C1 (centres undefined) | -5.6% | i | 0.79
CC(=O)Nc1ccc(S(=O)(=O)NC2(C(F)(F)F)NC(=O)N(C3CCCC3)C2=O)cc1 (centres undefined) | 0.0% | i | 1.2
O=C1NCCCC1C(=O)N1CCN(C(=O)C2CCCNC2=O)CC1 (centres undefined) | -0.2% | i | 1.3
CCC(=O)OCc1cc2cccc(C)c2[nH]c1=O | 7.2% | i | -1.5
CCOc1ccc(Oc2nc(NCC(C)C)nc(N(C)C)n2)nn1 | 4.8% | i | -0.33
Cc1cc(C(=O)N2CCc3ccccc32)n(-c2ccccc2)n1 | -2.2% | i | -1.6
O=C(Nc1cccc(O)c1)N1CCOCC1 | -0.3% | i | /
O=C1c2ccccc2S(=O)(=O)N1CC(O)Cn1c2ccccc2c2ccccc21 (centres undefined) | -5.8% | i | -0.77
Cc1c(/C(O)=C2/C(=O)C(=O)N(CCCN3CCOCC3)C2c2ccncc2)cnn1-c1ccccc1 (centres undefined) | -1.0% | i | -0.03
FC(F)(F)c1ccc2c(c1)nc1n2CCCC1 | -6.3% | i | 0.24
CCOC(=O)c1nn(-c2c(C)n(C)n(-c3ccccc3)c2=O)cc1O | -1.9% | i | 0.05
Cc1ccccc1-c1coc2cc(O)ccc2c1=O | -9.7% | i | 1.7
CC(=O)OCCN(Cc1ccccc1)Cc1ccc2c(c1)OCO2 | -0.6% | i | 2.3
O=C(O)CN(Cc1ccccc1)S(=O)(=O)c1ccc(F)cc1 | -0.1% | i | -1.3
O=C(NCCCN1CCCCCC1)c1ccc(CS(=O)(=O)Cc2ccccc2F)o1 | -43% | i | -1.6
CCC(=O)Nc1ccc(S(=O)(=O)NCc2ccco2)cc1 | 2.6% | i | /
Cc1ccccc1Cn1ccc(NC(=O)c2nc3ncccn3n2)n1 | 7.0% | i | -0.84
CS(=O)(=O)N1CCC(C(=O)NCCc2ccccc2)CC1 | 7.6% | i | /
CCOc1ccccc1Oc1cn[nH]c1-c1ccc(OC)cc1O | -4.9% | i | -0.64
CCOc1ccc(S(=O)(=O)N2CCN(S(=O)(=O)c3ccc(OCC)cc3)C(C)C2)cc1 (centres undefined) | 1.7% | i | 0.04
CCc1nc(SCc2ccc(C(=O)OC)o2)c2c(=O)n(C)c(=O)n(C)c2n1 | 2.6% | i | 1.1
CC(NC(=O)C1CC2CCCC(C1)C2=O)c1ccccc1 (centres undefined) | -0.3% | i | -0.01
Cc1occc1-c1nnc(SCC(=O)NCCc2ccccc2)n1Cc1ccccc1 | -0.7% | i | -1.4
COc1ccc(N(C)S(=O)(=O)c2cccc(C(=O)Nc3ccc(-n4cnnn4)cc3)c2)cc1 | -1.9% | i | 0.1
CCN(C(=O)Cc1ccc(Br)cc1)C1CCCCC1 | 2.6% | i | /
O=C1Cn2c(nc3ccccc32)-c2ccccc2N1 | 1.3% | i | -0.45
CCCCOc1ccc(N2C(=O)CC(NCCc3ccc(S(N)(=O)=O)cc3)C2=O)cc1 (centres undefined) | 1.5% | i | /
O=S(=O)(Cc1ccc(Cl)cc1)Nc1ccc2c(c1)OCO2 | 2.6% | i | 0.52
Cc1onc(-c2ccccc2Cl)c1C(=O)NCc1cccs1 | -2.8% | i | -1.9
O=[N+]([O-])c1ccc([C@H](O)[C@H](CO)N=Cc2ccccc2O)cc1 | -0.4% | i | /
Cc1ccccc1Cn1c(=O)n(CCCC(=O)NCc2ccco2)c(=O)c2ccccc21 | -4.0% | i | 1.3
CC(C)CNC(=O)c1cc2nc3c(c(C(F)(F)F)n2n1)CCc1ccccc1-3 | 4.2% | i | /
CCN(CC)C(=O)CSc1ncnc2sc(-c3ccccc3)cc12 | 4.2% | i | /

Carrying on:
Molecule | Hsc70 ATP site | MT1-MMP promoter | WNV protease inh
O=c1[nH]c(=O)n(Cc2ccco2)c2c1C(C(F)(F)F)(C(F)(F)F)N=C(CCc1ccccc1)N2 | 2.6% | i | /
Cc1nnc(C)n1/N=C/c1cccn1C | 2.2% | i | 0.39
O=C(CSc1ncnc2ccccc12)Nc1ccc2c(c1)OCO2 | 6.6% | i | 0.2
CCNc1nc(CC)nc2c1oc1ccccc12 | 6.0% | i | 0.32
CCCCn1c2nc3ccccc3nc2c2c(=O)n(CC(C)C)cnc21 | 1.7% | i | 0.41
c1ccc(N2CCN(c3nnc(Cc4cccnc4)c4ccccc34)CC2)nc1 | -5.3% | i | 1.7
O=C(Cc1ccc(Cl)cc1)Nc1cccc(-c2nnc(-c3ccco3)o2)c1 | -9.8% | i | 0.35
O=C(O)Cc1coc(-c2ccc(F)cc2)n1 | -6.6% | i | -0.16
COCCn1nnnc1C(c1cccc(OC)c1OC)N1CCN(C2CCCCC2)CC1 (centres undefined) | 2.0% | i | 3.5
c1ccc(OCc2nn3c(Cn4nnc5ccccc54)nnc3s2)cc1 | 2.2% | i | 0.38
CC(=O)Nc1ccc(S(=O)(=O)N2CCN(C34CC5CC(CC(C5)C3)C4)CC2)cc1 | -9.8% | i | -0.4
N#Cc1cc2c(nc1SCC(=O)Nc1sc3c(c1C#N)CCC3)CCC2 | 3.6% | i | /
Cc1oc(-c2ccccc2)cc1C(=O)Nc1cccc(C(=O)O)c1 | 2.2% | i | -0.08
COc1cccc(CN2CCN(C(=O)c3ccco3)CC2)c1OC | 1.2% | i | 1.3
c1ccc2c(c1)nc(Nc1ccc3c(c1)OCO3)c1nnnn12 | 0.6% | i | -0.37

Other compounds follow:
SMILES	Hsc70 ATP site	MT1-MMP promoter	WNV protease inh
CCOC(=O)CN1CC23C=CC(O2)C(C(=O)NCCc2ccccc2)C3C1=O (centres undefined)	3.5%	i	-1.4
O=C(c1ccco1)N1CCN(C(=O)C2CCN(S(=O)(=O)Cc3ccccc3)CC2)CC1	4.8%	i	0.16
CCOC(=O)CN(c1cccc(C(C)=O)c1)S(C)(=O)=O	-1.4%	i	/
CCSc1nnc(N)s1	3.0%	i	0.84
Cc1c(Cl)cccc1NC(=O)CN1CCN(CCO)CC1	4.7%	i	-0.77
CC(C)OC(=O)c1c(F)c(F)c(N2CCOCC2)c(F)c1F	-0.1%	i	1.8
CCOC(=O)c1cc2c(ccn2C)n1CC(=O)N1CCN(c2ccccc2)CC1	-0.7%	i	0.82
C=CCN(CC(=O)NCc1ccccc1)C(=O)c1csnn1	-3.2%	i	0.42
COc1ccccc1NC(=O)CN1CCN(C(=O)c2ccco2)CC1	0.4%	i	/
COc1ccc(OCc2nnc(SC3CCOC3=O)n2-c2ccccc2)cc1 (centres undefined)	-1.4%	i	-0.3
CCCCOc1ccc(-c2nc(-c3cccnc3)no2)cc1	0.0%	i	0.02
CCN(C(=O)COC(=O)c1cc2ccccc2cc1O)C1CCS(=O)(=O)C1 (centres undefined)	-2.1%	i	/
COc1ccc(C(=O)NCc2cccnc2)cc1S(=O)(=O)N1CCOCC1	4.6%	i	-1.1
O=C(O)c1c[nH]c2ccc(S(=O)(=O)N3CCN(c4ccc(F)cc4)CC3)cc2c1=O	-5.9%	i	1.4
O=c1[nH]c2ccc(Br)cc2c(-c2ccccc2)c1N1CCOCC1	-0.4%	i	0.64
Cc1ccc(N2C(=O)c3oc4ccccc4c(=O)c3C2c2cccc(O)c2)nc1 (centres undefined)	3.8%	i	-0.44
c1cncc(-c2nnc(SCc3nc4ccccc4[nH]3)o2)c1	2.4%	i	1.6
CC(C)C(=O)Nc1nnc(CCN2CCCCC2)s1	-0.4%	i	/
CCCC1(c2ccccc2)NC(=O)N(CC(=O)c2[nH]c(C)c(C(=O)OCC)c2C)C1=O (centres undefined)	-4.3%	i	0.9
COC(=O)c1ccccc1NC(=O)Cn1cc(Br)cn1	-1.6%	i	-0.65
O=c1cc(N2CCC3(CC2)OCCO3)[nH]c(=O)n1-c1ccc(Br)cc1	-4.6%	i	0.6
Cc1c(Cl)c(C(F)(F)F)nn1CC(=O)NCc1ccccc1	-3.7%	i	/
CCN(CC)CCn1c2ccccc2c2nc(C)sc21	-4.7%	i	0.12
Cc1cc(=O)[nH]c(SCC(=O)Nc2cccc(C(F)(F)F)c2)n1	-3.4%	i	0.03
O=C(Cn1c(NCCO)nc2ccccc21)NCCc1ccc(F)cc1	-3.2%	i	/
Cc1ccc(S(=O)(=O)NC(=O)NCc2ccccn2)cc1	17%	i	-0.8
COC(=O)C1=C(C)N(C2CCCC2)C(=O)C1(NC(C)=O)C(F)(F)F (centres undefined)	2.2%	i	-0.24
Cc1ccc(S(=O)(=O)N2CCN(Cc3nc4sc(C)c(C)c4c(=O)[nH]3)CC2)cc1	-2.2%	i	/
O=C1CCCC2=C1C(c1ccccc1O)C1=C(CCCC1=O)O2	11%	i	-0.86
O=C(Cn1c(NCCO)nc2ccccc21)c1ccco1	6.6%	i	-0.97
Cc1ccc(C)c(NC(=S)NC2CC3CCCC(C2)N3CC(C)C)c1 (centres undefined)	-1.1%	i	/
CC(C)CCNC(=O)CCCn1c(=O)[nH]c2ccc(Br)cc2c1=O	-9.9%	i	0.35

Six compounds picked at random from those above:
SMILES	Hsc70 ATP site	MT1-MMP promoter	WNV protease inh
Cc1c(/C(O)=C2/C(=O)C(=O)N(CCCN3CCOCC3)C2c2ccncc2)cnn1-c1ccccc1 (centres undefined)	-1.0%	i	-0.03
O=C(NCCCN1CCCCCC1)c1ccc(CS(=O)(=O)Cc2ccccc2F)o1	-43%	i	-1.6
CCCC1(c2ccccc2)NC(=O)N(CC(=O)c2[nH]c(C)c(C(=O)OCC)c2C)C1=O (centres undefined)	-4.3%	i	0.9
CCN(C(=O)COC(=O)c1cc2ccccc2cc1O)C1CCS(=O)(=O)C1 (centres undefined)	-2.1%	i	/
O=C1c2ccccc2S(=O)(=O)N1CC(O)Cn1c2ccccc2c2ccccc21 (centres undefined)	-5.8%	i	-0.77
CC(NC(=O)C1CC2CCCC(C1)C2=O)c1ccccc1 (centres undefined)	-0.3%	i	-0.01
